KCNQ2 enhance: enhances the rat KCNQ2 potassium channel; O88943; CHO-K1 KCNQ2, FluxOR thallium flux fluorescence; hits give high values; B-score at 10 µM; 310,000 tested, 0.54% active; AID 2239;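 active = fluorescence ratio B-score at least 3 SD of library B-scores, with initial fluorescence B-score within 3 SD, cut at about 5.3 in these data; same plate scores as AID 2156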;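 note: B-score of peak minus minimum over baseline fluorescence ratio after K+ and Tl+ stimulus; positive B-score means potentiation of KCNQ2 with more thallium influx and brighter signal; only the inactives scoring about 0 or higher are listed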
Target sequence (O88943 whole entry, looked up): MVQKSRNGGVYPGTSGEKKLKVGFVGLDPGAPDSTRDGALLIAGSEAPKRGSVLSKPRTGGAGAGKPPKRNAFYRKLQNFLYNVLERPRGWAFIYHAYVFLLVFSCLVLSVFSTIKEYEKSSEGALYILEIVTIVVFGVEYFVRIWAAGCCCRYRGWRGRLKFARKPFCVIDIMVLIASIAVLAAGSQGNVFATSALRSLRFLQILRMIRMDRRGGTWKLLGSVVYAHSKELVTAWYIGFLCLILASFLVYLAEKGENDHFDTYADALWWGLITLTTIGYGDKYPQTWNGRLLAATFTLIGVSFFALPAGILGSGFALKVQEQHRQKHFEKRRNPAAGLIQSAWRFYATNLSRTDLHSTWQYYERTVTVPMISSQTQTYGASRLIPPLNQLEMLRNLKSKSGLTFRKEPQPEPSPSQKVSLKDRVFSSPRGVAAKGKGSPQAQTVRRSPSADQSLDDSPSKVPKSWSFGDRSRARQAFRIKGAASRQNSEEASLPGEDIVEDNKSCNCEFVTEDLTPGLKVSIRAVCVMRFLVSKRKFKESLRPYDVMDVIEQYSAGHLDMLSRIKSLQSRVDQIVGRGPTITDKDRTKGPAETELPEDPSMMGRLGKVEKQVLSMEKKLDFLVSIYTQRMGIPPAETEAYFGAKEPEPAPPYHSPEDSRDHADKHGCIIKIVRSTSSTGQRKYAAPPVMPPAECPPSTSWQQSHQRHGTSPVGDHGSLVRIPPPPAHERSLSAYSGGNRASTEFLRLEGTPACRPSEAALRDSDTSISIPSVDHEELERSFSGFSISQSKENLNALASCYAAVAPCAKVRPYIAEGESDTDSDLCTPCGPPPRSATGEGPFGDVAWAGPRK
KCNQ2 enhance baseline: also measured in KCNQ2 enhance; calls as there; B-score; compound at 10 µM; measured here: initial fluorescence intensity artifact check;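 brightness before thallium and not channel activity; 0 = typical well and far values either way flag optical interference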
Active calls of the source: *.

canonical_smiles,KCNQ2 enhance,KCNQ2 enhance baseline
CNc1c(NS(=O)(=O)c2ccc(OC)cc2)c(=O)oc2ccccc12,0.08,-0.43
OC(COCc1ccccc1)CN1CCc2ccccc2C1 (stereo not drawn),0.04,-0.09
Cc1cccc(NC(=O)CN2C(=O)S/C(=C\C(=O)Nc3ccc(Cl)cc3)C2=O)c1,0.02,-1.82
COc1ccc(C(CC(=O)O)NC(=O)Cc2ccccc2)cc1 (stereo not drawn),0.1,-2.63
O=C(N/C(=C\c1cccnc1)C(=O)N1CCOCC1)c1ccco1,0.09,-1.9
CC(C)(C)C(=O)Cn1ncc(N2CCOCC2)c(Cl)c1=O,0.51,1.83
COC(=O)c1c(C)nn(-c2ccccc2)c1N,0.07,0.72
O=C(O)C[C@H]1c2cc(F)ccc2S(=O)(=O)N1Cc1ccccc1,0.11,0.2
Cc1nccn1S(=O)(=O)c1ccc(Br)cc1Br,1.15,-0.02
COc1ccc(-c2[nH]nc3c2C(c2ccncc2)C(C#N)=C(N)O3)cc1 (stereo not drawn),1.65,0.69
Nc1nnc(-c2cn(-c3ccccc3)nc2-c2ccccc2)o1,0.95,0.3
CSc1nc(NC(C)(C)C)nc(N2CCOCC2)n1,0.31,1.81
CC(C)(Cc1ccc(O)cc1)NC(=O)CC(=O)N/N=C/c1ccc(Cl)cc1,0.47,0.54
Cc1cc(C(=O)CS(=O)(=O)c2ccccc2)cc(C)c1O,0.48,0.2
COc1ccc(CCNC(=O)COc2ccc(S(=O)(=O)N3CCOCC3)cc2C)cc1,1.18,0.42
c1c(C2CCCCC2)n[nH]c1CN1CCCCC1,0.08,-0.28
O=S(=O)(NCCc1ccccc1)c1ccccc1,0.13,-0.5
O=C(Nc1c(F)cc(F)cc1Br)C1CCCO1 (stereo not drawn),0.2,0.47
COCCNC(=O)CCc1c(C)nc2nc(-c3cc(OC)cc(OC)c3)nn2c1C,0.12,-0.76
COC(=O)C1=C(C)N=C2SC(C)C(=O)N2C1c1cccs1 (stereo not drawn),0.85,1.33
Cc1c(Br)c([N+](=O)[O-])nn1CCCC(=O)Nc1sc2c(c1C#N)CCC2,2.15,-0.4
OCCC1CN(Cc2ccccc2-c2ccco2)CCN1Cc1ccsc1 (stereo not drawn),0.01,-0.01
C/C(=N/NC(=O)CNC(=O)C1COc2ccccc2O1)c1cccc(O)c1 (stereo not drawn),0.98,-0.09
CC(=O)Nc1ccc(NC(=O)C(C)OC(=O)CN(C)S(=O)(=O)c2ccc(Cl)cc2)cc1 (stereo not drawn),0.89,1.95
Cn1nc(-c2ccccc2)cc1NC(=O)C1CCCCC1,1.59,-0.06
CCOC(=O)C1CN(S(=O)(=O)c2ccccc2)CCN1S(=O)(=O)c1ccccc1 (stereo not drawn),1.73,-1.7
O=C(CN1C(=O)COc2ccccc21)N1CCCc2ccccc21,0.61,-1.43
CCN(CC(=O)c1c(N)n(C)c(=O)n(C)c1=O)c1cccc2ccccc12,0.05,-0.08
CCn1c(C)nnc1SCC(=O)NC1CCCCCC1,0.01,-1.04
O=C(N/N=C/c1ccccn1)c1ccc([N+](=O)[O-])cc1Cl,0.92,-1.25
Cc1ccc(NC(=O)CNC(=O)CC23CC4CC(CC(C4)C2)C3)c(O)c1,10.2*,-0.25*
CC(C)OC(=O)c1ccc(NC(=O)c2cncc(Br)c2)cc1,1.2,-1.96
N#Cc1c(N)nc(Sc2ccc(Cl)cc2)c(C#N)c1-c1ccccc1Cl,0.05,-0.81
CCCCCOC(=O)CSc1nnc(-c2ccccc2)c(=O)[nH]1,0.04,-0.64
COC(=O)C1CCN(C(=O)CSc2nnc(-c3ccccc3)o2)CC1,0.59,1.12
COc1cc(Cn2nnc3ccccc32)ccc1O,0.55,0.67
Nc1nc(NC(=O)c2ccco2)nn1-c1ccccc1,1.11,0.72
CCOC(=O)Nc1ccc2c(c1)N(C(=O)CCN1CCOCC1)c1ccccc1S2=O (stereo not drawn),0.04,-0.41
C/C(=N\Nc1ccc2nncn2n1)c1ccco1,0.72,1.45
NC(=O)Cc1cn(-c2ncc(C(F)(F)F)cc2Cl)c2ccccc12,0.06,-1.69
Cc1ccc(NC(=O)Nc2cccs2)nc1,0.05,0.01
COc1ccc(/C=N/Nc2nnc(Cc3ccc(OC)c(OC)c3)c(=O)[nH]2)cc1OC,0.07,0.04
CCCCC(=O)NC(=S)NNS(=O)(=O)c1ccccc1,1.02,-1.1
O=C(CCN1C(=O)/C(=C/c2ccc(F)cc2)SC1=S)NC1C=CS(=O)(=O)C1 (stereo not drawn),0.07,0.12
COc1ccc(-c2nn(C)c(=O)c3ccccc23)cc1NC(=O)Cn1nc(C)c2ccccc2c1=O,1.07,-0.19
O=C1CCc2cc(S(=O)(=O)Nc3cccc(F)c3)cc3c2N1CC3,0.74,0.01
O=[N+]([O-])c1cccc(-c2ccc(/C=N/NC(=S)Nc3ccccc3)o2)c1,0.43,-0.76
CC(=O)c1cccc(NC(=O)c2ccc(C)c(S(=O)(=O)N3CCOCC3)c2)c1,1.41,0.16
O=C(COC(=O)c1ccccn1)Nc1cccc(Cl)c1Cl,0.59,0.02
CC(C)c1cc(C(=O)N/N=C/c2ccoc2)cs1,0.81,0.06
Cc1ccc2c(c1)N(CC(=O)N1CCN(c3ccccc3)CC1)C(=O)C(C)O2 (stereo not drawn),1.41,-0.32
CCOC(=O)COc1ccc(S(=O)(=O)N2CCN(C(=O)OCC)CC2)cc1,0.51,-0.61
COCCCNC(=O)c1nc2ccccc2c(=O)n1NC(=O)Nc1c(Cl)cccc1Cl,1.06,-0.96
CN(CC(=O)NC1CC1)S(=O)(=O)c1cc(Cl)ccc1Cl,0.54,-0.01
Cc1ccc(N(CC(=O)NC2CCCCC2)C(=O)CNC(=O)c2ccco2)c(C)c1,0.79,-0.43
COc1ccccc1C(=O)Nn1cnc2ccccc2c1=O,0.73,-0.03
O=C(COC(=O)CCCNC(=O)c1ccc(Cl)cc1)NC1CC1,0.06,-0.36
Fc1ccc(NC(=S)NC2CC3CCCC(C2)N3Cc2cccs2)cc1 (stereo not drawn),0.06,-1.32
COc1ccc(C(=O)COC(=O)COc2cc(C)cc(C)c2)cc1,0.02,2.12
CCOc1ccc(C(=O)CCC(=O)NC(C)C(=O)OC)cc1 (stereo not drawn),0.34,-0.6

The list continues:
canonical_smiles,KCNQ2 enhance,KCNQ2 enhance baseline
O=C(NCCc1ccc(Cl)cc1)Nc1ccc(Cl)cc1,0.52,-0.13
COc1ccc(OC)c(NC(=O)C23CC4CC(C2)CC(n2cnc(Br)n2)(C4)C3)c1,0.59,0.18
CCOc1nc(NCc2ccco2)nc(Nc2ccc(OC)cc2)n1,0.01,-0.66
Cc1cc(C)nc(-n2ncc3c2CC(c2ccccc2)CC3=O)n1 (stereo not drawn),0.33,-1.97
CCOC(=O)N1CCN(C(=O)C2CC(=O)N(c3ccccc3)C2)CC1 (stereo not drawn),0.27,0.13
CN(C)c1ccc(C(=O)C(O)c2ccccc2)cc1 (stereo not drawn),0.08,-0.09
Cc1cnc(C(=O)OCC(=O)N(C)CC(=O)Nc2ccccc2Cl)cn1,0.13,1.47
Cc1ccc(C2=NN(CC(=O)NCc3ccco3)C(=O)CC2)cc1,1.02,-2.76
CCCCOC(=O)C1=C(C)NC(=O)NC1c1ccccc1 (stereo not drawn),0.62,1.19
CCCNC(=O)CCc1cc(C(C)(C)C)c(O)c(C(C)(C)C)c1,1.81,0.04
CCCC(C(=O)NC1CCCC1)N(CC1CCCO1)C(=O)CNS(=O)(=O)c1ccc(F)cc1 (stereo not drawn),0.25,1.2
Clc1ccc(/C=N/c2c(-c3ccc(Cl)cc3)nc3n2CCS3)cc1,1.35,-1.06

Fetched one by one from above:
canonical_smiles,KCNQ2 enhance,KCNQ2 enhance baseline
CCCC(C(=O)NC1CCCC1)N(CC1CCCO1)C(=O)CNS(=O)(=O)c1ccc(F)cc1 (stereo not drawn),0.25,1.2
N#Cc1c(N)nc(Sc2ccc(Cl)cc2)c(C#N)c1-c1ccccc1Cl,0.05,-0.81
CCOC(=O)Nc1ccc2c(c1)N(C(=O)CCN1CCOCC1)c1ccccc1S2=O (stereo not drawn),0.04,-0.41
O=C(O)C[C@H]1c2cc(F)ccc2S(=O)(=O)N1Cc1ccccc1,0.11,0.2
Cc1ccc(N(CC(=O)NC2CCCCC2)C(=O)CNC(=O)c2ccco2)c(C)c1,0.79,-0.43

Continued:
canonical_smiles,KCNQ2 enhance,KCNQ2 enhance baseline
O=C(c1cc(-c2ccc(Cl)cc2)n(-c2cc(Cl)ccc2Cl)n1)N1CCOCC1,1.45,-0.9
CCCNCC1COc2ccccc2O1 (stereo not drawn),1.09,0.22
COc1ccc(CNCCSc2nnnn2C)c(OC)c1OC,0.09,0.76
CN=C1NN=C(c2cc(C)n(-c3c(C)n(C)n(-c4ccccc4)c3=O)c2C)CS1,0.95,1.13
Clc1ccc(OCCCCCN2CCOCC2)cc1,0.72,-1.25
Cc1cccc(NC(=S)N(CCN(C)C)Cc2cccs2)c1,0.09,-0.12
CCC(NC(=O)Cc1cccs1)c1ccccc1 (stereo not drawn),0.04,-0.71
Clc1cccc(Cl)c1CSc1nnc(CN2CCOCC2)n1-c1ccccc1,0.53,-0.34
O=[N+]([O-])c1cccc2c(Cl)ccnc12,2.2,0
CCCC(=O)NCc1nc2ccccc2n1C,1.12,-0.41
Cn1c(=O)c2c(nc(NCc3cccnc3)n2Cc2cccc(C(F)(F)F)c2)n(C)c1=O,0.01,-2.19
O=C(COc1ccc(Cl)cc1)Nc1ccc(Cc2ccncc2)cc1,3.02,-0.3
CCC1(C)Cc2c(sc3nc(SC)[nH]c(=S)c23)CO1 (stereo not drawn),15.5*,-0.42*
Cc1ccccc1OCC(=O)Nc1ccc2c(c1)COC2=O,0.91,-0.03
O=C1C2C3C=CC([C@@H]2C(=O)N1Cc1cccnc1)C31CC1 (stereo partly drawn),1.09,-0.47
Cc1nnc(SC(C(=O)Nc2ccc(Cl)c([N+](=O)[O-])c2)c2ccccc2)[nH]c1=O (stereo not drawn),1.29,1.17
O=C(Nc1cccc(Cl)c1)OCCOc1ccccc1,0.99,-0.76
CC1=C(C#N)CCC(=O)N1Cc1c(F)cccc1Cl,0.9,-1
N#Cc1cc(-c2ccc(Cl)cc2)cn(Cc2c(Cl)cccc2Cl)c1=O,0.87,0.69
O=C(NNC(=S)Nc1ccccc1C(F)(F)F)c1ccc(Br)o1,0.04,-0.7
Cc1cccc2cc(CN(C(=O)c3cccs3)c3ccccc3)c(=O)[nH]c12,0.64,-1.61
O=C(CSc1nc(-c2ccccc2)cc(=O)[nH]1)Nc1ccccn1,1.34,-0.58
Cc1cc(NC(=O)CCc2ccccc2)c([N+](=O)[O-])cc1C,1.41,1.29
COc1cc(-c2nnc(SCC(=O)Nc3cc(C)on3)n2C)cc(OC)c1O,1.54,-0.99
O=C(Nc1cc(Cl)ccc1-n1cncn1)c1ccc([N+](=O)[O-])s1,0.96,-0.06
Cc1c(C)n(-c2ccccc2)c2ncnc(NCCCN(C)C)c12,0.96,1.26
O=C(C1=NN[C@@H]2C(=O)N(c3cccc(F)c3)C(=O)[C@H]12)C(c1ccccc1)c1ccccc1,0.18,0.83
O=S(=O)(NCC1CCCO1)c1cc(Cl)ccc1Cl (stereo not drawn),0.03,0.9
O=C(CCC(=O)Nc1nnc(C2CCCCC2)s1)NCc1ccc(F)cc1,0.1,0.17
Cc1ccc(C)c(NS(=O)(=O)c2cc(C(N)=O)ccc2C)c1,1.06,0.13
O=C(CCCOc1ccccc1)Nc1cccnc1,1.13,0.65
N#Cc1cccc(NC(=O)Nc2cccs2)c1,0.48,-0.09
CN1/C(=C/C=N/NC(=O)c2ccc([N+](=O)[O-])cc2)C(C)(C)c2ccccc21,0.42,-0.04
COc1ccc(S(=O)(=O)N(C)c2ccc(C(=O)NCc3ccco3)cc2)cc1,0.29,-0.21
CN(CC(=O)Nc1ccccc1Br)C(=O)C1CCN(C(=O)c2ccc(Cl)cc2)CC1,1.41,0.63
CC(=O)c1ccc(S(=O)(=O)NCc2cccnc2)cc1,0.6,0.32
Cc1ccnc(NC(=O)Cn2c(=O)oc3cc(S(=O)(=O)N4CCCC4)ccc32)c1,0.6,-0.32
CN(CCN1CCOCC1)Cc1nc(-c2cccs2)no1,0.39,-0.61
COc1ccc(C2C(C#N)=C(N)N(N(C)C)C3=C2C(=O)CCC3)cc1 (stereo not drawn),1.96,-1.78
CCCCC(CC)C(=O)Nc1ccc(Cl)cn1 (stereo not drawn),0.32,0.68
O=C(c1ccco1)N1N=C(c2ccc(Cl)cc2)CC1c1ccco1 (stereo not drawn),0.12,0.01
COc1cc(C(=O)NC(=S)Nc2nc(-c3ccc(F)cc3)cs2)cc(OC)c1OC,0.42,-0.14
CC(C)N(c1ccccc1)c1ccc(NC(=S)NCCN(C)C)cc1,0.12,0.01
O=C(CN(C(=O)CCC(=O)Nc1nccs1)c1ccc(F)cc1)NCC1CCCO1 (stereo not drawn),0.19,0.31
CCN1CCN(c2ccc(S(=O)(=O)N3CCCCC3)cc2NC(=O)Cc2c(F)cccc2Cl)CC1,0.32,1.15
CC(=O)Nc1ccc(O)cc1[N+](=O)[O-],1.81,0.49

2 entries from above in a different format.
Each structure is followed by: KCNQ2 enhance, KCNQ2 enhance baseline
- Cc1ccnc(NC(=O)Cn2c(=O)oc3cc(S(=O)(=O)N4CCCC4)ccc32)c1
 : 0.6, -0.32
- CN(CCN1CCOCC1)Cc1nc(-c2cccs2)no1
 : 0.39, -0.61

Bioassay records (PubChem BioAssay)

The list is partial; the hit share may differ from the screen's.
